Source: PubChem
NPYLR7 agonist = mosquito NPYLR7 agonism | 0.15% of 270,000 active | HEK293T NPYLR7/Galpha15, GCaMP6s calcium fluorescence | activation, % at 10 µM; in the data active = activation above about 40%;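 also: 0% = vehicle and 100% = reference agonist at the receptor; some compounds past the cut are filed as inactive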
NPYLR7 agonist max-min = recorded beside NPYLR7 agonist, whose call it bears; activation, %; measured here: Max-Min RFU normalised activation; some inactives read as strong as hits;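 span of the calcium signal over five minutes; 0% = vehicle and 100% = native peptide agonist; compound fluorescence can raise it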
* marks the source's active call; other numbers are inactive results; & = joins results of further samples.

SMILES	NPYLR7 agonist	NPYLR7 agonist max-min
COc1ccccc1-n1c(SCc2nc(C(=O)N3CCN(c4ccc([N+](=O)[O-])cc4)CC3)cs2)nnc1-c1cccnc1	15	20
COc1ccc(C(=O)Cn2nc(C3CCN(S(C)(=O)=O)CC3)n(C)c2=O)cc1	-4	4
O=C(C1CCS(=O)(=O)CC1)N1CCC2(CC1)C(=O)Nc1ccccc12	-2	-3
Cc1nc(Cn2c(C)c(C(=O)NCc3cccc(C(F)(F)F)c3)sc2=O)cs1	-10	-4
FC(F)(F)c1cc(-n2c(COc3ccccc3)n[nH]c2=S)cc(C(F)(F)F)c1	-4	-8
N#Cc1c2c(c(=O)n3c1[nH]c1ccccc13)CCC2	0&4	6&-1
CCOC(=O)c1c(NC(=O)c2ccc(NC(C)=O)cc2)c(-c2cccc(F)c2)cn1C	2	2
CCOC(=O)C1=NN(C(=O)c2ccccc2)C2C(=O)N(CC)C(=O)C12 (stereo not drawn)	-2	4
CC(C)CNC(=O)[C@@]1(OCc2ccc(C#N)cc2)CC(OCc2ccc(C(F)(F)F)cc2)[C@@H]2OC(C)(C)O[C@@H]2C1 (stereo partly drawn)	2	18
O=C(CCC1CCCN(Cc2cccc3cnccc23)C1)NCc1ccccc1Cl (stereo not drawn)	11	5
COC(C)c1nc(CN2CCCN(CC(=O)NCc3ccc(F)cc3)CC2)cs1 (stereo not drawn)	6	3
CCn1c(=O)c([N+](=O)[O-])c(NCCc2ccc(OC)cc2)c2ccccc21	3	8
CCN(CC)c1ccc(C2C(C(=O)OC)=C(C)NC3=C2C(=O)CC(c2ccccc2Cl)C3)cc1 (stereo not drawn)	-2	-6
CC(=O)OC[C@H]1O[C@@H]2C[C@@H](Nc3c(C)cccc32)[C@@H]1OC(C)=O	8	15
COc1c(S(=O)(=O)N2CCC(C(N)=O)CC2)ccc(Cl)c1Cl	5	4
CCOC(=O)c1c(C)nn(-c2ccc(C(=O)NC3CCCCC3)cc2)c1C	-17	-26
O=C1CC(c2ccccc2)Oc2c(Cl)cc(Cl)cc21 (stereo not drawn)	24	10
Cc1nonc1OCCCNc1cc(N2CCCCC2)ccc1[N+](=O)[O-]	-9	-14
CCCCCCCCCCCCCC(=O)N1CCN(Cc2cc(=O)c(OCc3ccc(C(C)(C)C)cc3)co2)CC1	29	16
CC(=O)c1cccc(Nc2nccc3c2cc(-c2ccc(C(=O)N(C)C)cc2)n3C)c1	1	-8
COc1ccc2c(c1)C(C(=O)N1CCN(CC(=O)OC(C)(C)C)CC1)=CC(C)(C)O2	5	16
CN(Cc1ccccc1)C1(C(=O)NCCc2ccncc2)Cc2ccccc2C1	-6	-11
Fc1ccc(N2CCC(NCCNc3cccnc3)C2)cc1 (stereo not drawn)	17	11
COc1ccc(CCNC(=O)CN2CN(c3ccccc3)C3(CCN(C(=O)c4ccccc4OC)CC3)C2=O)cc1OC	22	23
O=C(Nc1ccc(Oc2ncccn2)cc1)NC1C2CCCC1CN(C1CC1)C2 (stereo not drawn)	-8	466

Whole records, looked up by structure. Order of values: NPYLR7 agonist	NPYLR7 agonist max-min
Entry for `CC(=O)c1cccc(Nc2nccc3c2cc(-c2ccc(C(=O)N(C)C)cc2)n3C)c1` → 1	-8
Entry for `CCOC(=O)C1=NN(C(=O)c2ccccc2)C2C(=O)N(CC)C(=O)C12` (stereo not drawn) → -2	4
Entry for `CCCCCCCCCCCCCC(=O)N1CCN(Cc2cc(=O)c(OCc3ccc(C(C)(C)C)cc3)co2)CC1` → 29	16
Entry for `O=C(CCC1CCCN(Cc2cccc3cnccc23)C1)NCc1ccccc1Cl` (stereo not drawn) → 11	5
Entry for `O=C(C1CCS(=O)(=O)CC1)N1CCC2(CC1)C(=O)Nc1ccccc12` → -2	-3

The listing picks up, repeating the three entries before the break.
SMILES	NPYLR7 agonist	NPYLR7 agonist max-min
Fc1ccc(N2CCC(NCCNc3cccnc3)C2)cc1 (stereo not drawn)	17	11
COc1ccc(CCNC(=O)CN2CN(c3ccccc3)C3(CCN(C(=O)c4ccccc4OC)CC3)C2=O)cc1OC	22	23
O=C(Nc1ccc(Oc2ncccn2)cc1)NC1C2CCCC1CN(C1CC1)C2 (stereo not drawn)	-8	466
CCOC(=O)NCCNC(=O)NC1C2CCCC1CN(C1CC1)C2 (stereo not drawn)	1	7
C=CCN1C(=O)NC(NC(=O)c2ccccc2)(C(F)(F)F)C1=O (stereo not drawn)	15	7
Cn1nc(C(=O)NCc2noc(-c3ccco3)n2)c2c1CCCC2	2	-4
C=CCOc1ccc(C(=O)N2CCNC(=O)C2C)cc1OCC (stereo not drawn)	1	16
CC1(C)O[C@@H]2C[C@@](OCc3ccc(F)cc3)(C(=O)NCCN3CCOCC3)CC(OCc3cccc(OC(F)(F)F)c3)[C@@H]2O1 (stereo partly drawn)	8	18
O=C(NCCCc1ccccc1)c1ccc(-c2cccc(Cl)c2)s1	4	-2
Clc1ccc(-c2cc(-c3nnc(SCC4CCCO4)o3)c3ccccc3n2)cc1 (stereo not drawn)	3	4
CCc1ccccc1N1CCN(C(=O)COC)C(C)C1=O (stereo not drawn)	11	22
O=C(OCc1cc(=O)n2c3c(sc2n1)CCCC3)c1cc(=O)c2cc(Cl)ccc2o1	-1	-10
COc1cc(C(=O)NC2CCSc3ccc(Cl)cc32)c([N+](=O)[O-])cc1OC (stereo not drawn)	3	0
CCOc1ccc2nc(N3CCC(NCCc4cnn(-c5ccccc5)c4)CC3)nc(C)c2c1	20	5
COc1ccc(S(=O)(=O)N2CCOCC2)cc1NC(=O)C1(c2cccc(C)c2)CCC1	2	2
Cn1c(SCC(O)=C(C#N)c2nc3ccccc3[nH]2)nnc1C1CC1	-1	6
COCCn1ccnc1-c1[nH]cnc1-c1ccccc1	1	-4
C=CCNC(=O)CN1CN(c2ccccc2)C2(CCN(C(=O)NCc3ccccc3)CC2)C1=O	8	10
COC(=O)c1ccc(NS(=O)(=O)c2ccccc2C(=O)OC)cc1	4	3
CN1N=C(C(=O)NC2CCCN(Cc3ccccc3F)C2)CCC1=O (stereo not drawn)	3	-2
CC(C)(C)CC(=O)N1CCN(Cc2nc3ccccc3c(=O)[nH]2)CC1	1	12
CCCN1C(=O)C(=Cc2c(NCc3ccco3)nc3ccccn3c2=O)SC1=S	9	7
Cc1ccc(OCCN(C)Cc2ccc(CO)o2)c(C)c1	25	10
O=C(c1cc(Cl)cnc1Cl)N1CCN(Cc2cc(=O)c(OCc3ccc(C(F)(F)F)cc3)co2)CC1	12	3
COC(=O)[C@H](Cc1ccc(OC)cc1)NC(=O)[C@@H]1CN(S(C)(=O)=O)CCN1C(=O)N1CCOCC1	-12	-18
Cc1cccc(C(=O)NNC(=O)c2cc3c(s2)CCCC3)c1O	1	-1
O=C(COc1ccccc1)N(Cc1ccccn1)c1nc2ccc(Cl)cc2s1	1	-7
c1cnc(-n2cncn2)c(CNc2nccc(C3CCCC3)n2)c1	6	3
Later entries.
SMILES	NPYLR7 agonist	NPYLR7 agonist max-min
Cc1cc(F)ccc1S(=O)(=O)ON1C(=O)c2cccc3cccc(c23)C1=O	-8	-12
COc1ccccc1CCC(=O)N1CCC2(CC1)OCc1cc(-c3ccc(C)c(F)c3)ccc1O2	-4	-12
CCOC(=O)c1nn(CCc2ccc(OC)cc2)c2c1CN(Cc1cccc3nccnc13)CC2	15	5
CCCNC(=O)C1(C)CCN(Cc2cccc(F)c2)C1 (stereo not drawn)	-1	0
CN(CCN1CCCC1=O)C1CCc2c(F)ccc(F)c21 (stereo not drawn)	10	6
Nc1cc(Cl)c(NC2=NCCN2)c(Cl)c1	9	-9
Oc1c(C=Nc2ccccc2)sc2ccccc12	20	24
Cc1ccc2nc(C3CCCN3Cc3cnc(S(C)(=O)=O)n3CC(C)C)[nH]c2c1 (stereo not drawn)	6	3
CCOC(=O)CSC=C1NC(=O)NCC1C(=O)OCC (stereo not drawn)	-10	-16
Cc1cccc(S(=O)(=O)Nc2ccccc2C(=O)NCCc2ccc(F)cc2)c1	-1	9
CCNC(=O)[C@@H]1C[C@@H](N)CN1C(=O)c1ccc(Cn2nc(C)cc2C)cc1	21	10
CCOC(=O)CC1C(=O)NCCN1C(=O)Nc1ccc(OCC)cc1 (stereo not drawn)	-7	-12
CC(C)CN(Cc1ccc(OS(C)(=O)=O)cc1)C(=O)Nc1ccc(Cl)cc1Cl	-2	8
CCOC(=O)c1c(NC(=O)Cc2ccc(Cl)cc2)sc(C(=O)Nc2ccccc2)c1C	4	9
CC1=NC2=C(C(=O)CCC2)C(c2cccc([N+](=O)[O-])c2)C1C#N (stereo not drawn)	10	9
COc1ccc(NC(=O)Cn2c(-c3nnc(CC(C)C)o3)cc3ccccc32)cc1	-2	-1
COc1ccc(CCNC(=O)Cc2csc(NC(=O)CN(C(=O)c3ccco3)C(C)C)n2)cc1OC	-11	-12
OC(COCc1ccccc1)CN(Cc1c(-c2ccccc2F)noc1N1CCOCC1)C1CC1 (stereo not drawn)	-6	6
C#CCCN1CCC(NC(=O)c2ccc(-n3cccc3)c(F)c2)CC1	-8	-9
CCCOC1CCCN(S(=O)(=O)c2ccc(Cl)cc2)C1 (stereo not drawn)	-2	1
O=C(c1ccc(N2CC(O)C2)nc1)N1CCC(CCc2ccccc2)CC1	7	2
COC(=O)c1csc(NC(=O)C2CCCN(C(=O)C3CC3)C2)c1 (stereo not drawn)	-5	-9
CCC(C)n1c(=O)[nH]c2sc3c(c2c1=O)CCN(C(=O)c1c(F)cnc(F)c1F)C3 (stereo not drawn)	5	4
Cc1nc(SCC(=O)NCCc2ccccc2)c2c3c(sc2n1)CCC3	11	3
COCCN(CC(=O)N(Cc1ccccc1)Cc1sccc1C)C(=O)c1ccc(Br)cc1	-6	-1

An excerpt from above in order of SMILES length, low to high.
SMILES	NPYLR7 agonist	NPYLR7 agonist max-min
Oc1c(C=Nc2ccccc2)sc2ccccc12	20	24
CCCNC(=O)C1(C)CCN(Cc2cccc(F)c2)C1 (stereo not drawn)	-1	0
OC(COCc1ccccc1)CN(Cc1c(-c2ccccc2F)noc1N1CCOCC1)C1CC1 (stereo not drawn)	-6	6

New compounds follow
SMILES	NPYLR7 agonist	NPYLR7 agonist max-min
O=C(NCCn1nc(-c2ccccc2)ccc1=O)c1ccc(F)cc1	-2	-2
CCCc1c(C(=O)N2CCCC2)cnn1-c1ccccc1C	3	6
CCOC(=O)CCc1c(C)nc2ncnn2c1N1CCN(Cc2c(F)cccc2Cl)CC1	16	17
CC(C)CN1C(=O)C(c2c(C(C)C)[nH]n(-c3ccc(Cl)c(Cl)c3)c2=O)=C([n+]2ccccc2)C1=O	6	7
N#Cc1c(=O)c2nc3ccccc3nc2n2c1sc1ccccc12	-4	-6
Cc1noc(C)c1S(=O)(=O)N(Cc1ccccn1)C(C)C	0	-5
CCn1nc(C(C)C)cc1C(=O)NC(C)Cc1cnccn1 (stereo not drawn)	4	4
Cc1ccn2c(=O)nc(SCC(=O)N3CCCCC3)nc2c1	0	-3
CCCc1nc(N[C@H]2COC[C@@H]2N2CCCCC2)c2cnn(C)c2n1	-2	-1
COCc1c(Br)c(C)nc(OCC(=O)N/N=C\c2cc(-c3ccccc3)n(-c3ccc(Br)cc3)c2-c2ccccc2)c1C#N	7	15
O=C(COCc1ccccc1)N1CCc2ccccc2C1c1ccc(Cl)cc1 (stereo not drawn)	23	8
Cc1nn(C)c(C)c1/C=C/C(=O)NC(C)CN1CC(C)CC(C)C1 (stereo not drawn)	1	1
Cc1ccc(CCS(=O)(=O)c2ccc(C(C)(C)C)cc2)c[n+]1CC(=O)C(C)(C)C	-1	-1
CC(C)(C)Nc1c(C2CCCCC2)nc2c(OCc3ccccc3)cccn12	0	-2
C=CCn1c(SCC(=O)Nc2ccc(C(=O)OC)cc2)nc2scc(-c3ccco3)c2c1=O	-3	-6
COc1ccc(-c2ccc(C(=O)NCc3nnc4n3CCCC4)o2)cc1	2	1
COc1ccc(OCCN2CCC(C(=O)NC(c3ccccc3)c3ccc4ccccc4n3)CC2)cc1 (stereo not drawn)	16	5
COc1ncccc1CNC(=O)N1CCCc2cc(F)ccc21	5	3
CC(C)c1ccccc1OCC(=O)NNC(=O)c1cc2c(s1)CCC2	9	6
COCCCN1CC2=C(C1=O)C(c1cc(OC)cc(OC)c1)NC(=O)N2C (stereo not drawn)	18	32
Cc1c(-c2nnc(-c3ccco3)o2)nnn1-c1cccc(Cl)c1	3	1
CCOCCOc1nc(-c2cccc(OC)c2)n(-c2ccc(NC(=O)Nc3ccc(F)cc3F)cc2)n1	-6	8
CNc1cnc(-c2ccsc2)cn1	1	0
Cc1nc(NCCNS(=O)(=O)c2ccc(F)cc2)cc(-n2cccn2)n1	-7	-15
COc1cc(-c2noc(C(NCC(O)Cc3ccccc3)C(C)C)n2)cc(OC)c1OC (stereo not drawn)	12	15
c1ccc(-c2nnc(CSc3nnnn3C3CCCC3)o2)cc1	2	13
Cc1ccccc1CC(=O)N1CCOC(COc2ccc3c(c2)CCCC3)C1 (stereo not drawn)	13	9
O=C(CN1CCOC1=O)N1CC[C@@H](c2ccc3c(c2)OCO3)[C@H](O)C1	6	4

Exported as comma-separated lines: 7 of the compounds above
canonical_smiles,NPYLR7 agonist,NPYLR7 agonist max-min
Cc1nn(C)c(C)c1/C=C/C(=O)NC(C)CN1CC(C)CC(C)C1 (stereo not drawn),1,1
Cc1ccc(CCS(=O)(=O)c2ccc(C(C)(C)C)cc2)c[n+]1CC(=O)C(C)(C)C,-1,-1
CC(C)(C)Nc1c(C2CCCCC2)nc2c(OCc3ccccc3)cccn12,0,-2
C=CCn1c(SCC(=O)Nc2ccc(C(=O)OC)cc2)nc2scc(-c3ccco3)c2c1=O,-3,-6
COc1ccc(-c2ccc(C(=O)NCc3nnc4n3CCCC4)o2)cc1,2,1
COc1ccc(OCCN2CCC(C(=O)NC(c3ccccc3)c3ccc4ccccc4n3)CC2)cc1 (stereo not drawn),16,5
COc1ncccc1CNC(=O)N1CCCc2cc(F)ccc21,5,3

An excerpt; the hit share may differ from the screen's.
